From PubChem
Vaccinia Venus: vaccinia inhibition (Venus reporter); Vaccinia virus Venus reporter expression, fluorescence; Potency, µM (highest dose often 36.5 µM), for the others: at the highest dose activity change, negative = inhibition, hits mostly inhibitors; 0.46% of 330,000 active; AID 720580; active means well fitted inhibition curve with a large enough effect; inconclusive means small, poorly fitted or top-dose-only effect; inactive means no such curve, though single readings can be large or run the other way; tested in A549 cells; also: nearly all actives have a fitted effect of over 30% in size; inactives centre near -10
Vaccinia mCherry: inhibitors of vaccinia virus infection (mCherry reporter signal); Vaccinia virus mCherry reporter infection, fluorescence; about a quarter of the inactives have no number; Potency, µM (series often up to 36.5 µM), for inactives: top-dose activity change, negative = inhibition, hits mostly inhibitors; 0.63% of 310,000 active; active = well fitted inhibition curve with a large enough effect; inconclusive = small, poorly fitted or top-dose-only effect; inactive = no such curve, though single readings can be large or run the other way; tested in A549 cells; also: nearly all actives have a fitted effect of over 35% in size; inactives centre near -10
An asterisk follows results filed as active; i = inactive; ? = inconclusive; / = no result given; [ ] = dose if it differs, or a comment. % is scaled to controls: 0 for no effect and ±100 for the full control effect; potency is read from the fitted curve at half-maximal effect.

SMILES	Vaccinia Venus	Vaccinia mCherry
COc1ccccc1OCC(=O)NCCNC(=O)COc1ccccc1OC	-5%	i
O=C(CCc1ccccc1)NC1CCCc2ccccc21 (configuration not stated)	-1%	-7%
CN(CC(=O)Nc1c(Cl)cccc1Cl)C(=O)c1cc2ccccc2cc1O	-18%	0%
Cc1ccc2c(c1)nnn2C1CCN(S(C)(=O)=O)CC1	6%	-5%
CCCCOCCCNC(=O)C[C@@H]1C[C@@]2(C(=O)OC)CC(C)(C)CC=C2N(Cc2ccco2)C1=O	?	?
C=CCn1c(O)c(/C=C2\C=NN=C2c2ccccc2)sc1=S	-30%	-4%
Cc1ccc(NC(=O)COC(=O)C2=COCCO2)c([N+](=O)[O-])c1	-20%	i
CCCOc1ccc(/C=C/C(=O)O)cc1OC	-10%	-17%
COc1ccc(/C=C/C(=O)Nc2nc(C)c(C(=O)N(C)C)s2)cc1	0%	-10%
Cc1ccc(S(=O)(=O)NCc2c(-c3ccccc3)noc2C)cc1	-7%	i
COCCCN1Cc2cccc(C(=O)O)c2C1=O	-4%	-26%
Cc1csc(NC(=O)c2ccc(-c3ccc(Cl)cc3Cl)o2)n1	-23%	i

Compound profiles (already shown). Screens in order: Vaccinia Venus	Vaccinia mCherry
O=C(CCc1ccccc1)NC1CCCc2ccccc21 (configuration not stated) is entered as -1%	-7%
Cc1csc(NC(=O)c2ccc(-c3ccc(Cl)cc3Cl)o2)n1 is entered as -23%	i

Next part:
SMILES	Vaccinia Venus	Vaccinia mCherry
Cc1ccc(S(=O)(=O)N2CCC(C(=O)Nc3ccc(Oc4ccccc4)cc3)CC2)cc1	-3%	-10%
CCOc1ccc2nc(NC(=O)Nc3ccccc3)sc2c1	-12%	-11%
CCOc1ccc(C(=O)N2CCCC2C(=O)O)cc1 (configuration not stated)	-23%	-8%
CC(NC(=O)COc1ccc(N(C)S(=O)(=O)c2ccccc2)cc1)c1ccccc1 (configuration not stated)	-11%	?
COc1ccc(N2CCN(CC(=O)NC(=O)NC(C)(C)C)CC2)cc1	-18%	-5%
O=C(N/N=C/c1c(O)n(-c2ccc(Cl)cn2)c(=O)c2ccccc12)C1CC1	-16%	?
COc1cc(C(=O)NC(=S)Nc2ccccc2N2CCCC2)cc(OC)c1OC	0%[7.34 µM]	i[7.34 µM]
Cc1ccc(C)c(NC(=O)C2Cc3ccccc3CN2C(=O)OCc2ccccc2)c1 (configuration not stated)	-11%	-10%
COC1CC(C)C(OC)c2cc(O)cc(c2O)NC(=O)C(C)=CC=CC(C)C(OC(N)=O)C(C)=CC(C)C1OC (configuration not stated)	?	?
COc1ccc(Cc2nc3ccccc3n2CC(=O)N/N=C/c2ccc(C)cc2O)cc1OC	-8%	-15%
COC(=O)c1cc(OC)c(OC)cc1NC(=O)c1ccc(Br)o1	0%	/
CCOc1ccc(N(CC(=O)Nc2cc(C)ccc2C)S(=O)(=O)c2c(C)[nH]c(=O)[nH]c2=O)cc1	6%	-12%
CNC(=O)c1ccsc1NC(=O)CCS(=O)(=O)c1ccc(F)cc1	?	?
CCN(CC)S(=O)(=O)c1cccc(-c2nnc(SCc3nc4ccccc4s3)o2)c1	28µM*	/
COc1ccc(C)cc1NC(=O)Cn1c(=O)oc2cc(S(=O)(=O)N3CCCCCC3)ccc21	-13%	-24%
COc1cccc(CN(C)S(=O)(=O)c2cccs2)c1	-1%	-8%
Cc1cc(/C=N/Nc2ccc([N+](=O)[O-])cn2)c(C)n1-c1cccc(C(=O)O)c1	-17%	?
O=C(NCCc1ccccc1)c1c(F)cccc1F	-4%	i
CCc1ccc([C@H]2[C@@H]3C(=O)C[C@@H]4C(=O)N(c5ccccc5)C(=O)[C@@H]4[C@@H]3CN2S(=O)(=O)c2ccc(C)cc2)cc1	0%	32%[activator]
CCCN(CCC)C(=O)C1CCCN(c2ncnc3c2nc2n3CCCCC2)C1 (configuration not stated)	-12%	-14%
CC1CCCN(C(=O)CSc2nnc(-c3ccc(O)cc3)o2)C1 (configuration not stated)	-2%	-15%
CC(C)(C)c1ccc(CC(=O)N2CCC2(C)C(=O)O)cc1 (configuration not stated)	-2%	i
O=C(Cc1cccs1)N/N=C/c1ccccc1	-9%	i
CC(C)NC(=O)c1ccccc1S(=O)c1ccccc1C#N (configuration not stated)	-10%	/

Rewritten with values under each structure: part of the list above.
Fields: Vaccinia Venus	Vaccinia mCherry
- CCOc1ccc(C(=O)N2CCCC2C(=O)O)cc1 (configuration not stated)
  -23%	-8%
- CC(NC(=O)COc1ccc(N(C)S(=O)(=O)c2ccccc2)cc1)c1ccccc1 (configuration not stated)
  -11%	?
- COc1ccc(N2CCN(CC(=O)NC(=O)NC(C)(C)C)CC2)cc1
  -18%	-5%
- O=C(N/N=C/c1c(O)n(-c2ccc(Cl)cn2)c(=O)c2ccccc12)C1CC1
  -16%	?
- COc1cc(C(=O)NC(=S)Nc2ccccc2N2CCCC2)cc(OC)c1OC
  0%[7.34 µM]	i[7.34 µM]
- Cc1ccc(C)c(NC(=O)C2Cc3ccccc3CN2C(=O)OCc2ccccc2)c1 (configuration not stated)
  -11%	-10%
- COC1CC(C)C(OC)c2cc(O)cc(c2O)NC(=O)C(C)=CC=CC(C)C(OC(N)=O)C(C)=CC(C)C1OC (configuration not stated)
  ?	?
- COc1ccc(Cc2nc3ccccc3n2CC(=O)N/N=C/c2ccc(C)cc2O)cc1OC
  -8%	-15%
- COC(=O)c1cc(OC)c(OC)cc1NC(=O)c1ccc(Br)o1
  0%	/
- CCOc1ccc(N(CC(=O)Nc2cc(C)ccc2C)S(=O)(=O)c2c(C)[nH]c(=O)[nH]c2=O)cc1
  6%	-12%
- CNC(=O)c1ccsc1NC(=O)CCS(=O)(=O)c1ccc(F)cc1
  ?	?
- CCN(CC)S(=O)(=O)c1cccc(-c2nnc(SCc3nc4ccccc4s3)o2)c1
  28µM*	/
- COc1ccc(C)cc1NC(=O)Cn1c(=O)oc2cc(S(=O)(=O)N3CCCCCC3)ccc21
  -13%	-24%
- COc1cccc(CN(C)S(=O)(=O)c2cccs2)c1
  -1%	-8%
- Cc1cc(/C=N/Nc2ccc([N+](=O)[O-])cn2)c(C)n1-c1cccc(C(=O)O)c1
  -17%	?
- O=C(NCCc1ccccc1)c1c(F)cccc1F
  -4%	i
- CCc1ccc([C@H]2[C@@H]3C(=O)C[C@@H]4C(=O)N(c5ccccc5)C(=O)[C@@H]4[C@@H]3CN2S(=O)(=O)c2ccc(C)cc2)cc1
  0%	32%[activator]
- CCCN(CCC)C(=O)C1CCCN(c2ncnc3c2nc2n3CCCCC2)C1 (configuration not stated)
  -12%	-14%
- CC1CCCN(C(=O)CSc2nnc(-c3ccc(O)cc3)o2)C1 (configuration not stated)
  -2%	-15%

Other structures.
SMILES	Vaccinia Venus	Vaccinia mCherry
CC1CCCC/C1=N/Nc1ccc([N+](=O)[O-])cc1[N+](=O)[O-] (configuration not stated)	-9%	-8%
CCn1cc2nc(SCC(=O)Nc3cccc(Cl)c3C)n(Cc3ccc(Cl)cc3)c(=O)c2n1	-8%	-1%
CCOc1ccc(C2c3c(-c4ccc(C)cc4)n[nH]c3C(=O)N2c2ccc(Cl)cc2)cc1 (configuration not stated)	?	?
CCOc1ccc(C(=O)NCC(c2ccco2)N2CCOCC2)cc1 (configuration not stated)	-7%	i
CC(=O)Nc1nonc1-c1nnc(SCc2ccccc2Cl)n1C	-14%	-8%
COc1cc(CNC(=O)C2CCCCN2S(=O)(=O)c2ccc(F)cc2)cc(OC)c1OC (configuration not stated)	-1%	-13%
O=C(NCC(c1ccco1)N1CCOCC1)c1ccc([N+](=O)[O-])cc1 (configuration not stated)	-1%	-11%
C#CCOCCOCCOCCNc1nc(N2CCN(C(=O)[C@H](CCCCN)n3cc(CN)nn3)CC2)nc(N2CCN(C(=O)[C@H](CCC(=O)O)n3cc([C@@H](N)CCCCN)nn3)CC2)n1	-6%	-2%
Cc1cc(C)cc(Nc2sc(C(=O)c3ccccc3)c(N)c2S(=O)(=O)c2ccccc2)c1	-6%	-24%
Cc1cc2c(cc3c(=O)n(CC(=O)NCc4ccccc4Br)ncn32)s1	-10%	-10%
CCOC(=O)Cc1csc(NC(=O)c2sc3nc4ccc(CC)cc4cc3c2N)n1	-8%	-24%
CC1CCN(S(=O)(=O)c2ccc(NC(=O)CSc3ncccc3C(=O)O)cc2)CC1	2%	-7%
Cc1ccc(C(=O)NCCN2C3=NC[C@H](C)N3C[C@H]2Cc2ccc(O)cc2)cc1Br	-7%	-14%
CC1CN(C(=O)c2ccc(S(=O)(=O)Nc3ccccc3F)cc2)CC(C)O1 (configuration not stated)	-4%	-13%
CCOc1ccc(OCCOc2ccc(/C=C/C(=O)O)cc2OCC)cc1	-1%	12%
CCC(C)NC(=O)Cn1c(-c2cccs2)cc2cc(Cl)ccc21 (configuration not stated)	-4%	-5%
CC(C)(C)OC(=O)COc1cc(OCC(=O)OC(C)(C)C)c2c(=O)cc(-c3ccccc3)oc2c1	11µM*	?
CN(C)c1ccc(/C=N/NC2=NS(=O)(=O)c3ccccc32)cc1	-7%	i
CCCSc1ccc(C(=O)Nc2ccc(Cl)cc2)cn1	-23%	-12%
Cc1ccc(OC(=O)N(C)C[C@H]2OCc3cnnn3CCCC(=O)N([C@@H](C)CO)C[C@H]2C)cc1	-11%	i
Cc1ccc(NC(=O)C2CC2c2ccccc2)c([N+](=O)[O-])c1 (configuration not stated)	-11%	-10%
O=C(NC(c1ccccc1)c1ccccc1)c1ccc(=O)[nH]n1	-1%	8%
CCNC(=O)C1(C)CCCN(C(=O)c2nc3ccccc3s2)C1 (configuration not stated)	1%	i
CC(C)(C)n1nc2c(c1NC(=O)COc1ccc(F)cc1)CS(=O)(=O)C2	-17%	i
COc1ccc(CNCC(O)COc2ccc(C(C)(C)c3ccccc3)cc2)cc1 (configuration not stated)	-27%	-29%
O=c1c2ccccc2nc2n1CCCCC2	-14%	i
CC(=O)C1=C(C)N(CC2CC2)C(=O)N[C@H]1c1ccccc1	-3%	i
Nc1c(C2CCCCC2)c(=O)on1C(=O)c1ccccc1	-1%	-10%
O=C(OCCN=C1NS(=O)(=O)c2ccccc21)c1ccco1	-19%	-12%
O=C(NCCNC(=O)c1cnccn1)c1ccc(Cl)cc1	-8%	-14%
Cc1c(Cl)cccc1NC(=O)CN1C(=O)COc2ccc(S(=O)(=O)N3CCOCC3)cc21	-11%	-9%
COc1ccc(CCNc2nc(N3CCOCC3)nc(N3CCOCC3)n2)cc1OC	?	-18%
CC(=O)c1ccc(NC(=O)Cn2c(-n3nc(C)cc3C)nc(C)cc2=O)cc1	-7%	-20%
Cc1ccc(N2CC(C(=O)NCCS(=O)(=O)N3CCN(c4ccccc4)CC3)CC2=O)cc1C (configuration not stated)	-6%	-4%
CCS(=O)(=O)N1CCC(C(=O)NCCCOC)CC1	-3%	-3%
CCCCOc1ccc(CSc2ncn[nH]2)cc1	-8%	-14%
CCCCN(CCCC)CC(O)CN(c1cc([N+](=O)[O-])ccc1OC)S(=O)(=O)c1ccccc1 (configuration not stated)	-25%	?
CC1=C(C(=O)N2CCCCCC2)CC(CC(=O)NCc2cccc3ccccc23)C(=O)N1CCC1=CCCCC1 (configuration not stated)	-19%	-19%
CN(C)S(=O)(=O)c1ccc(NC(=O)CCNC(=O)c2ccc([N+](=O)[O-])cc2)cc1	-7%	-14%
COc1ccc(OC)c(N2C(=O)c3ccccc3C2c2nnnn2-c2ccc3c(c2)OCCO3)c1 (configuration not stated)	-18%	-6%
COc1ccc(C(=O)COC(=O)CNC(=O)c2cc(OC)cc(OC)c2)cc1	-15%	-5%
Cc1ccc2ccc[n+](Cc3ccccc3)c2c1	-28%	-20%
NC(=O)Nc1ccc(C(=O)OCC(=O)c2c[nH]c3ccccc23)cc1	0%	i
COc1cc(CN2C[C@@H](CO)O[C@@H](n3cnc4c(NCC(C)C)ncnc43)C2)cc(OC)c1OC	-2%	i
O=c1ccc2cc3c4c(c2o1)CCCN4CCC3	13%	-15%
Cc1ccc(Cl)cc1NC(=O)c1cnc(N2CCCCC2)c2ccccc12	-7%	-12%
NC(=O)c1cc2nc(-c3ccco3)cc(C(F)(F)F)n2n1	-4%	-12%
CCOc1cc(CNC(=O)Cn2ncn3c(cc4cc(F)ccc43)c2=O)cc(OCC)c1OCC	-4%	5%
COc1ccc(NC(=S)NC(=O)CC(C)C)c(OC)c1	3%	-6%
CC(OC(=O)c1ccc2c(c1)S(=O)(=O)c1ccccc1C2=O)C(N)=O (configuration not stated)	-4%	?
